PINK1 expr mod: PINK1 expression modulation; PINK1 immunofluorescence, high-content cytometry, 24 h; Potency, µM (doses to about 76.6 µM), for the others: top-dose activation (PINK1 increase), most hits filed as activators; 410,000 tested, 0.2% active; AID 624263; active = well fitted activation curve with a large enough effect; inconclusive = small, poorly fitted or top-dose-only effect; inactive = flat fitted curve, though single readings scatter; cell line not stated here;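 further: potency means the concentration at half of the fitted maximal effect; % of control where 0% means no effect; nearly all actives have a fitted effect of over 65% in size; a mitochondrial uncoupler was the plate control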
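Stable cell line, 250 cells/well, 12 h attachment; compounds pinned at 5 concentrations, 24 h; CCCP control. Fixed with nuclear dye, primary antibodies 12 h at 10 degrees C, secondary plus cell stain; laser-scanning cytometer read.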
D2 ag: agonists of human D2 dopamine receptor (beta-arrestin) | P14416 | DiscoveRx PathHunter D2 beta-arrestin, luminescence, 90 min; 100% = 57 uM dopamine signal | activation, % (concentration not given with the values) | 360,000 tested, 0.084% active | AID 624465; in the data active = activation above about 40%; inconclusive = about 15% to 40%; inactive = below about 15%; further: compound concentration not given in the record; the text of the record calls up to 30% inactive
Target sequence (P14416 whole entry, looked up): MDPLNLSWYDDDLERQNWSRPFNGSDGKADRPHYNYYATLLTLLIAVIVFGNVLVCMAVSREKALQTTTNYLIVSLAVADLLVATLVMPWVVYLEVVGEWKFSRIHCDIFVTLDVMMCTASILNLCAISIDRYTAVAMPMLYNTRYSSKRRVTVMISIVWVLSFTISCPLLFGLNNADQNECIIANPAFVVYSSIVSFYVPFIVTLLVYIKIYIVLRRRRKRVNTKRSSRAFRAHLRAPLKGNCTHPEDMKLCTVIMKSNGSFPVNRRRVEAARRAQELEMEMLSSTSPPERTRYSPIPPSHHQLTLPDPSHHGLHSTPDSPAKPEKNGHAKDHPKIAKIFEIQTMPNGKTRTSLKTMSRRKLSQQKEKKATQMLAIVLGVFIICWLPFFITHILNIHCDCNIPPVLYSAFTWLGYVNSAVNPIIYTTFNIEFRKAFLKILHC
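DiscoveRx PathHunter D2 beta-arrestin cells (2,100/well) attached overnight, then compound-stimulated 90 min at 37 C in HBSS/10 mM HEPES/0.1% Tween-20 buffer; beta-galactosidase complementation read by luminescence after 1 h at ambient temperature. Dopamine 57 uM final (EC100) as control.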
gsp antag: gsp mutant antagonism. gsp-mutant cells, cAMP HTRF, 30 min; control for the full effect not named in the record. Potency, µM (doses to about 76.9 µM), without a hit: top-dose activity change, negative = inhibition, most hits filed as inhibitors. 340,000 tested, 0.4% active. AID 624288; active = falling curve of any shape with a large fitted effect; inconclusive = falling curve, mostly with a smaller effect; inactive = flat or rising curve; cell line not stated here;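 further: intracellular cAMP measured with PDE inhibitor Ro 20-1724 present during compound exposure; potency means the concentration at half of the fitted maximal effect; on the % scale 0 is the no-effect control and ±100 the full control effect; nearly all actives have a fitted effect of over 65% in size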
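Measurement of cellular cAMP by homogeneous time-resolved fluorescence following a 30 min compound exposure at 37C. The PDE inhibitor […] was present throughout; the assay buffer was DPBS with 0.05% BSA and 0.005% Tween 20.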
gsp ag: gsp mutant agonism; gsp mutant cells, cAMP HTRF, 30 min; control for the full effect not named in the record; Potency, µM (doses to about 76.9 µM), inactives show at the highest dose activation (cAMP increase), hits mostly activators; 340,000 tested, 0.13% active; AID 624287; active = well fitted activation curve with a large enough effect; inconclusive = small, poorly fitted or top-dose-only effect, or another doubt; inactive = no such curve, though single readings can be large or run the other way; cell line not stated here;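 further: phosphodiesterase inhibitor Ro 20-1724 added with compounds to block cAMP breakdown; potency means the concentration at half of the fitted maximal effect; nearly all actives have a fitted effect of over 60% in size; about a fifth of the inactives were tested at one dose only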
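Cells in DMEM/10% FBS with G418 were pretreated with compounds in DMSO plus […] (300 uM stock) for 30 min at 37C. cAMP was measured by HTRF (cAMP-d2 plus anti-cAMP antibody-K) after 30 min at room temperature.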
Menin-MLL FL inh: menin-MLL binding inhibition, fluorescein peptide; Fluorescence polarization, fluorescein-MLL peptide displacement from menin; FP activity change, % at 61.4 µM; 290,000 tested, under 10 active; inconclusive = falling polarisation curve, or a change in total fluorescence; inactive = total fluorescence flat and polarisation flat or rising; no compound was filed as active; the % refers to the polarisation; negative = inhibition;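 further: % of control where 0% means no effect; inhibitors lower the polarisation; unlabelled MLL peptide was the positive control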
Sfp inh: blocks B. subtilis Sfp PPTase activity; Q9F4F7; Biochemical Sfp PPTase activity, qHTS; Potency, µM, for inactives: max response, negative = inhibition, hits mostly inhibitors; 310,000 tested, 3.5% active; AID 1490; active means well fitted inhibition curve with a large enough effect; inconclusive means small, poorly fitted or top-dose-only effect, or another doubt; inactive means no such curve, though single readings can be large or run the other way;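 further: the enzyme is Sfp with the accession as filed and its product quenches rhodamine fluorescence; potency means the concentration at half of the fitted maximal effect; 0% = enzyme reaction without inhibitor and -100% = no enzyme wells; top concentration of the series not given in the record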
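Fluorescence-quenching assay: 15 nM Sfp-PPTase preincubated 15 min at room temperature with compound, then 5 uM rhodamine-CoA and 12.5 uM BHQ-2-labelled YbbR peptide added. Fluorescence (ex 525/em 598 nm) read at start and after 30 min; difference gives rate.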
ClpP mod: qHTS Assay for Activators of ClpP; purified B. subtilis ClpP, FRET peptide cleavage, 20 min; Potency, µM (doses to about 57.5 µM), without a hit: at the top dose activity change, negative = active; 340,000 tested, 1.9% active; active = well fitted falling curve with a large enough effect; inconclusive = small, poorly fitted or top-dose-only effect; inactive = no such curve, though single readings can be large or run the other way; further: potency means the concentration at half of the fitted maximal effect; the source files actives as falling curves though it sought activators and does not explain the sign; nearly all actives have a fitted effect of over 65% in size; many hits overshoot -100%
Target sequence (P80244 whole entry, looked up): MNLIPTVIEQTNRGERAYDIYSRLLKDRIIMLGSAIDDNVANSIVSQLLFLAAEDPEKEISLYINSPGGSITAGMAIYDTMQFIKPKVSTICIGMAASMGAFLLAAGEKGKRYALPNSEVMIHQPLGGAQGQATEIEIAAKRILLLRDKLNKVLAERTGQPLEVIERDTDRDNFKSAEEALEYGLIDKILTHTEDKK
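ClpP 10 microg/mL final, pH 8 Tris/KCl buffer with BSA, glycerol, Tween-20; compound pinned in; FRET-FV substrate; RT 20 min; Ex320/Em430; ΔFRET vs ADEP 5.8 microM, DMSO, no enzyme.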
The depositor's hits bear a star; u = inconclusive; x = not tested or not shown; & = joins results of further samples; [ ] = dose if it differs, or a comment.

SMILES	PINK1 expr mod	D2 ag	gsp antag	gsp ag	Menin-MLL FL inh	Sfp inh	ClpP mod
COc1ccccc1N(CC(O)CN1CCCCC1)S(=O)(=O)c1ccc(C)cc1 (centres undefined)	2.8%	0.5	4.1%	12.0%	3.6	11.8%	x
CCN(C[C@H]1N[C@@](CC)(C(=O)OC)[C@H]2C(=O)N(C)C(=O)[C@@H]12)C(=O)Nc1ccc(C)cc1	-0.9%	-1.5	4.0%	x	x	x	-2.0%
O=C(Nc1ccc(N2CCN(Cc3ccccc3)CC2)cc1)c1ncn[nH]1	2.3%	-1.8	-7.5%	-12.6%	0.7	8.8%	1.4%
CCOC(=O)Cc1cc(=O)c2cc(C)ccc2[nH]1	-0.9%	-0.9	2.9%	-21.8%	3.2	10.3%	-8.3%
Cc1ccc(/C=C/C(=O)N2CCCC(C)C2)cc1 (centres undefined)	2.8%	-2.6	-1.1%	-16.8%	6.0	-4.4%	1.4%
CCCC(=O)OCCNc1cc(Sc2nc3ccccc3[nH]2)c2nonc2c1[N+](=O)[O-]	-1.1%	-7.5	u	10.6%	12.0	10µM*	-1.6%
Cc1ccc(OCc2ccc(C(=O)O)o2)c([N+](=O)[O-])c1	1.3%	-1.5	9.5%	25.8%	1.6	-11.8%	-13.3%
Cc1ccccc1NC(=O)CSCc1cc(=O)n2ccsc2n1	1.1%	-1.6	3.2%	-1.7%	x	14.3%	-0.6%
O=C(O)C1C(c2ccccc2)C(C(=O)OCc2ccco2)C1c1ccccc1 (centres undefined)	-4.1%[38.3 µM]	0.7	7.9%	-24.5%	4.9	19.1%	-1.8%
CCn1c(CNS(=O)(=O)c2ccc(Br)cc2)n[nH]c1=S	1.6%	-3.3	0.1%	2.8%	x	16.3%	-0.2%
O=C(Nc1nc(-c2ccc(F)c(F)c2)cs1)c1ccc(OCC2CCCO2)cc1 (centres undefined)	10.4%	-0.6	-9.2%	-3.6%	8.1	-12.5%	84.4%
CC(=O)N1CCc2cc(S(=O)(=O)NCCC(=O)NC3CCCc4ccccc43)ccc21 (centres undefined)	0.2%	-0.6	-20.5%	0.0%	1.3	12.4%	-0.2%
COc1ccc(NC(=O)C23CCC(C)(C(=O)C2)C3(C)C)cc1 (centres undefined)	0.0%	-0.4	7.5%	0.0%	1.6	14.4%	1.4%
COc1ccccc1NC(=O)C1CCN(c2ncnc3c2nc2n3CCCCC2)CC1	1.3%&2.1%	0.7	-25.5%	u	3.5	0.5%	-3.2%&0.4%
COc1ccc(C(=O)OCC(=O)NC2CC2)cc1S(=O)(=O)N1CCOCC1	-0.5%	-0.6	5.1%	-17.7%[15.4 µM]	4.6	-15.8%	x
Cc1ccc(-c2csc3ncnc(Nc4ccc(C(=O)O)cc4)c23)cc1	-1.2%&-4.5%	-2.1	-1.8%	-27.4%	3.3	3.9%	-7.6%&-5.9%
O=[N+]([O-])c1ccc(C[n+]2cccc3ccccc32)cc1	-0.7%	5.6	4.1%	-2.2%[15.4 µM]	u	-3.1%	x
CSCCC(c1nnnn1C(C)(C)C)N1CCN(C/C=C/c2ccccc2)CC1 (centres undefined)	0.1%	-1.0	x	x	x	x	-1.3%
COc1ccccc1CN(CC(=O)NCc1ccc(F)cc1)C(=O)c1csnn1	-1.5%	-6.7	-5.7%	4.1%[15.4 µM]	3.6	9.9%	x
O=C1/C(=C/c2ccc(F)cc2)SC(=S)N1N1CCOCC1	2.4%	1.0	9.3%	10.8%	2.5	-10.7%	x
CC1CC(C)CN(C(=O)Cn2c(=O)n(CCCCC(=O)NC3CCCC3)c(=O)c3ccccc32)C1 (centres undefined)	-0.7%	-3.6	-13.8%	-18.4%	-3.4	17.7%	-9.6%
COc1ccc(-c2cc(-c3ccccc3)nc(-c3ccc4c(c3)NC(=O)CO4)c2)cc1	x	-1.6	-6.4%	7.7%	7.5	10.1%	25.1µM*
Cc1cccc(Nc2nc(N)c([N+](=O)[O-])c(N3CCC(C)CC3)n2)c1	-3.6%	-5.3	-8.0%	28.4%[15.4 µM]	4.6	1.0%	-1.7%
O=C(Nc1cccc2ccccc12)N1CC=C(c2ccccc2)CC1	1.4%	-0.6	15.6%	-8.6%	1.3	-2.3%	u
CNC(=O)c1ccsc1NC(=O)c1sc2ccccc2c1Cl	2.9%	3.0	-18.5%	-22.9%	2.7	0.9%	58.4%
C=CCNC(=O)C1CC(=O)N(c2ccc(OCC(=O)Nc3ccccc3)cc2)C1 (centres undefined)	3.0%[38.3 µM]	2.5	0.2%	21.5%	2.7	24.2%	0.1%
C=CCn1c(=O)/c(=C/c2ccc(C)o2)s/c1=C(/C#N)C(=O)c1ccccc1	u	-0.4&1.9	-7.6%	-29.0%	u	u	-2.0%
O=C(Cn1cnc2ccccc21)Nc1ccccc1-c1ccccc1	2.6%	5.0	-3.7%	2.4%[15.4 µM]	-2.6	8.6%	0.9%
CCOC(=O)c1c[nH]c2nc(C)ccc2c1=O	-0.8%	1.2	0.1%	29.4%	u	19.6%	-4.8%&-5.2%
c1cncc(-c2csc(-c3cccnc3)n2)c1	-3.8%	0.1	17.4%	9.4%	-0.8	12.0%	-14.8%
CN(C)c1ccc(P(=O)(COc2ccc([N+](=O)[O-])cc2)c2ccc(N(C)C)cc2)cc1	-0.7%	-11.7	u	-4.0%[15.4 µM]	-4.1	-0.4%	x
O=C(CSc1nc2ccccc2c(=O)n1CCCC(=O)N1CCCC1)NCc1ccco1	2.9%	-0.7	-19.4%	1.0%	0.9	8.4%	0.1%
CN(C)C(=O)c1ccc(Cl)cc1[N+](=O)[O-]	1.4%	8.2	21.8%	-2.0%[15.4 µM]	-0.1	14.6%	x
CSc1cccc(NC(=S)N2CCC(N(C)C(C)C)CC2)c1	1.3%	-3.4	12.1%	-11.4%[15.4 µM]	-4.8	23.9%	-0.5%
CC(C)n1c(SCC(=O)NCc2ccco2)nnc1C1CC1	2.5%	-3.0	-3.2%	-23.9%	4.7	-1.5%	0.7%
CCn1ncc(Br)c1C(=O)Nc1ncc(C)s1	-0.5%	-1.9	3.7%	-4.4%	0.1	8.9%	2.4%
COC(=O)[C@H](CCSC)NC(=O)Nc1ccc(OC)cc1OC	-1.8%[38.3 µM]	-0.7	-0.7%	-0.6%	1.3	10.5%	-0.3%
COc1ccc(NS(=O)(=O)Cc2ccccc2Cl)cn1	3.8%[38.3 µM]	-2.8	5.1%	14.3%	2.9	14.2%	-4.4%
Cc1ccc(NC(=O)CC(C)c2ccccc2)cc1S(=O)(=O)N1CCOCC1 (centres undefined)	0.6%	-0.9	-1.5%	-3.8%[15.4 µM]	x	x	0.8%
COCc1cc(C)nc(NC2CCCCC2)c1C#N	0.9%	-3.4	-7.4%	5.8%	3.6	-5.9%	89.5%
CCOc1ccc(S(=O)(=O)N2CCC(C(=O)N3CCOCC3)CC2)cc1Cl	3.3%	1.4	-11.2%	2.6%[15.4 µM]	0.2	9.6%	x
Nc1ccccc1-c1nnc(-c2ccccc2N)n1N	-1.2%	1.7	6.5%	7.6%	-6.8	8.1%	-11.3%
Cc1nc(-c2ccc([N+](=O)[O-])cc2)sc1C(=O)O	-1.3%	3.4	-8.1%	13.4%[15.4 µM]	0.3	19.2%	x
CSC1=NCCN1S(=O)(=O)c1ccc(Cl)cc1	-1.7%	2.1	6.1%	u	1.5	11.9%	0.8%
Cc1cc(C(=O)Cn2cc([N+](=O)[O-])ccc2=O)c(C)n1CC1CCCO1 (centres undefined)	-0.1%	-1.5	14.3%	2.9%	x	x	-3.6%
CC1CCCC(C)N1C(=O)c1ccc2c(c1)S(=O)(=O)c1ccccc1C2=O (centres undefined)	0.7%	-2.6	10.4%	2.2%[15.4 µM]	-17.6	13.9%	x
COCCCNCC(O)COc1cccc2[nH]c(C)cc12 (centres undefined)	0.4%	0.3	-5.7%	-58.3%[inhibitor]	3.9	11.5%	x
Cc1ccc(S(=O)(=O)N2CCC(C(=O)NCCCN3CCOCC3)CC2)cc1C	0.3%	3.6	6.5%	35.2%[15.4 µM]	x	x	x
Cc1cccc(N2CCN(Cc3ccc([N+](=O)[O-])o3)CC2)c1C	1.8%	-3.4	9.9%	-24.0%	1.5	-28.9%	x
CCN(CC)C(=O)Cn1cc(S(=O)(=O)CC(=O)Nc2ccc(F)cc2F)c2ccccc21	-2.5%	-6.7	-4.9%	6.4%	x	6.8%	-4.8%

(list continues)
SMILES	PINK1 expr mod	D2 ag	gsp antag	gsp ag	Menin-MLL FL inh	Sfp inh	ClpP mod
CCCCS(=O)(=O)/C=C\C=C/S(=O)(=O)CCCC	-4.2%	-0.9	-4.1%	-24.6%	1.0	11.2µM*	u
Cc1cc(C(=O)COc2ccccc2C(N)=O)c(C)n1C	2.0%	-2.4	4.9%	-8.6%[15.4 µM]	3.9	8.9%	28.2µM*
O=C1NC[C@H](Cc2ccccc2)N(CC2CCN(CCC34CC5CC(CC(C5)C3)C4)CC2)C1=O	4.5%	-5.7	10.4%	x	x	x	-3.5%
CS(=O)(=O)Nc1ccccc1C(=O)NC1CC2CCC1C2 (centres undefined)	1.1%[38.3 µM]	-1.8	-7.8%	-6.3%	2.8	5.0%	35.5µM*
COc1ccc(N2CCN(S(=O)(=O)CC34CCC(CC3=O)C4(C)C)CC2)cc1 (centres undefined)	0.6%	0.3	-8.9%	1.1%	-2.0	-4.3%	-2.1%
CCOC(=O)c1c(C=O)c(C)n(Cc2ccc(C)cc2)c1C	6.4%	0.5	10.8%	u	4.8	u	-0.4%
COc1ccc(S(=O)(=O)Nc2c(NC3CCCCC3)c3ccccc3oc2=O)cc1	-1.2%	0.7	-20.2%	-6.5%	x	3.8%	-8.4%
COc1ccc(NC(=O)CSc2nncs2)cc1S(=O)(=O)N1CCCCC1	1.5%	1.8	-1.2%	u	x	x	1.7%
O=S(=O)(c1ccc(S(=O)(=O)N2CCOCC2)cc1)N1CCCC1	-0.8%	-19.3	0.4%	10.7%[15.4 µM]	0.5	3.1%	x
CC(OC(=O)CCCN=C1NS(=O)(=O)c2ccccc21)C(=O)N(C)c1ccccc1 (centres undefined)	5.3%	6.5	3.1%	28.8%	x	x	-2.3%
O=S(=O)(Nc1ncccc1O)c1ccc(Cl)cc1	-2.0%[38.3 µM]	3.0	-2.8%	-4.6%	4.5	11.4%	0.8%
